Mtb hypoxia rep: inhibitors of hypoxia-regulated fluorescent reporter in Mycobacterium tuberculosis; M. tuberculosis hypoxia-regulated fluorescent reporter, fluorescence; fluorescence inhibition, % (no concentration beside the values); actives 0.1% (n = 300,000); AID 1159583;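 active = 35 to 45% if threefold the growth effect, above 45% if 1.5-fold the growth effect; inactive = the rest, general growth blockers included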;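 note: wells of about 50 µL received 100 nL stock; 0% = vehicle wells and 100% = reference inhibitor wells; whole bacteria with a GFP reporter of the hypoxia response; strong numbers were not always called active; many hits fall short of the cut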
PrP 5UTR inh: inhibition of PrP 5' UTR reporter expression. AID 488862. cell-based PrP 5' UTR mRNA reporter, plate reader. actives 0.35% (n = 340,000). inhibition, % (concentration not given with the values);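 active = every replicate at 50% or more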;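 note: 0 = median of the neutral control wells; tested in H4 reporter cells; numbers are from one replicate; inactives centre near -14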
Sa RN4220 lethal: S. aureus RN4220 growth inhibition. OD600, 16 h. inhibition, % (no concentration beside the values). AID 1259311. actives 0.33% (n = 330,000);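 active = z-score of -3 or lower and OD600 up to 0.18 on both plates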;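 note: plate controls were untreated cells for no effect and reference antibiotic for full effect; stock transfer was 100 nL into about 80 µL; one replicate is shown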
BJeLR lethal: BJeLR cell viability loss | BJeLR (HRASV12) viability, CellTiter-Glo ATP luminescence, 48 h; reference of the scale not given here | inhibition, % (no concentration beside the values) | actives 0.17% (n = 300,000) | AID 1554;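 active = replicate mean above 50%; inconclusive = above 50% but judged a plate artefact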;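 note: 50 nL library stock added to about 25 µL; numbers are from one replicate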
Sa ugtP lethal: growth inhibition of S. aureus ugtP deletion strain; growth inhibition, % (test concentration not listed); S. aureus RN4220 ugtP deletion, OD600 growth, 16 h; some inactives read as strong as hits; actives 0.54% (n = 330,000); AID 1259309;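 active = z-score under -3 and OD600 up to 0.15 on both plates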;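 note: plate controls were untreated wells for no effect and antibiotic for full effect; wells of about 80 µL received 100 nL stock; the first replicate is given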
Autofluor counter: counter-screen for toxin protease inhibitors: compound fluorescence; compound autofluorescence counterscreen, microsphere flow cytometry; hits give high values; fluorescence intensity (test concentration not listed); actives 3.1% (n = 360,000);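 active = at least 3 SD above the mean of all compounds, about 16000 in these data; inconclusive = too few beads counted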;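 note: 100 nL of 1 mM stock went into each well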
Mtb hypoxia rep growth: further read-out of Mtb hypoxia rep, marked with its call; growth inhibition, %; measured here: M. tuberculosis growth (absorbance);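 0% = vehicle and 100% = reference antibiotic; read after six days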
The depositor's hits bear a star.

Results for CC1CCN(CCC(=O)N/N=C/c2ccc([N+](=O)[O-])cc2)CC1 ?
PrP 5UTR inh: -15.4; BJeLR lethal: 0.5; Autofluor counter: 4167

How did O=C(Nn1c(C2CCCCC2)nc2ccccc2c1=O)c1ccc([N+](=O)[O-])cc1 do in these assays?
Mtb hypoxia rep: -2.0; PrP 5UTR inh: 0.8; Sa RN4220 lethal: -1.1; BJeLR lethal: 1.5; Sa ugtP lethal: 1.3; Autofluor counter: 2013; Mtb hypoxia rep growth: 8.6

Results for COc1cccc(NC(=O)CN(C)C(=O)c2ccc(NS(=O)(=O)c3ccc(F)cc3)cc2)c1 ?
Mtb hypoxia rep: 2.5; PrP 5UTR inh: -14.8; Sa RN4220 lethal: 2.7; Sa ugtP lethal: 1.3; Autofluor counter: 3913; Mtb hypoxia rep growth: 1.5

What do the screens show for `O=C(Cc1ccc(NC(=O)C2CCCN(C(=O)C3CC3)C2)cc1)Nc1ccc(C(=O)N2CCOCC2)cc1` (stereo unspecified)?
Mtb hypoxia rep: -3.2; PrP 5UTR inh: -32.5; Sa RN4220 lethal: 2.6; Sa ugtP lethal: 3.3; Autofluor counter: 3604; Mtb hypoxia rep growth: 13.0

How did CC=CC(=O)Nc1cccc(C2=NOC3(C2)CC(C(N)=O)N(C(=O)c2ccc(OC)cc2)C3)c1 (stereo unspecified) do in these assays?
Mtb hypoxia rep: -16.3; Sa RN4220 lethal: 1.2; Sa ugtP lethal: -2.0; Mtb hypoxia rep growth: 0.9

How did CCn1cc(C(=O)OCC(=O)N2C(C)CCCC2C)c(=O)c2ccc(C)nc21 (stereo unspecified) do in these assays?
Mtb hypoxia rep: 9.1; PrP 5UTR inh: 2.4; Sa RN4220 lethal: 8.0; BJeLR lethal: 3.6; Sa ugtP lethal: 0.3; Autofluor counter: 4500; Mtb hypoxia rep growth: 3.9

How did Cc1c(N(CC(=O)O)S(=O)(=O)c2ccccc2)c(=O)n(-c2ccccc2)n1C do in these assays?
Mtb hypoxia rep: -5.0; PrP 5UTR inh: -42.4; Sa RN4220 lethal: 3.8; BJeLR lethal: 8.5; Sa ugtP lethal: 1.9; Autofluor counter: 8120; Mtb hypoxia rep growth: -7.4

How did CN1CCN(c2ccc(CNS(=O)(=O)c3ccsc3)cc2)CC1 do in these assays?
Mtb hypoxia rep: 1.7; Sa RN4220 lethal: 4.5; BJeLR lethal: 9.8; Sa ugtP lethal: 7.0; Autofluor counter: 5666; Mtb hypoxia rep growth: 12.1

Results for CSc1ccc(CN(C)CC(=O)Nc2cccc(Br)c2)cc1 ?
Mtb hypoxia rep: 0.9; PrP 5UTR inh: -9.6; Sa RN4220 lethal: 0.3; BJeLR lethal: 1.8; Sa ugtP lethal: -6.7; Autofluor counter: 2539; Mtb hypoxia rep growth: 3.0

What do the screens show for `COc1ccc(NC(=O)CN(C)C(=O)c2ccc(C)c(S(=O)(=O)N3CCCCC3)c2)cc1`?
Mtb hypoxia rep: 20.2; PrP 5UTR inh: -6.2; Sa RN4220 lethal: 1.1; Sa ugtP lethal: 2.1; Autofluor counter: 4041; Mtb hypoxia rep growth: 31.1

How did CC1CCCC(C)N1/N=C/c1ccccc1C(=O)O (stereo unspecified) do in these assays?
PrP 5UTR inh: -18.2; BJeLR lethal: -6.9; Autofluor counter: 4452

What do the screens show for `Cc1cnc([N+](=O)[O-])n1CCOC(=O)NC(=O)c1ccc(F)cc1`?
Mtb hypoxia rep: -4.9; PrP 5UTR inh: -13.3; Sa RN4220 lethal: 1.8; BJeLR lethal: 6.5; Sa ugtP lethal: 1.0; Autofluor counter: 3883; Mtb hypoxia rep growth: 3.7

What do the screens show for `Cc1cc(C)n2nc(SCC(=O)N/N=C/c3ccccc3F)nc2n1`?
PrP 5UTR inh: -14.2; BJeLR lethal: 14.3; Autofluor counter: 10709

What do the screens show for `Cc1c(C(=O)N2CCC3(CC2)CC(=O)c2ccccc2O3)cccc1[N+](=O)[O-]`?
PrP 5UTR inh: -10.7; BJeLR lethal: 0.8; Autofluor counter: inconclusive

How did O=C(CCSc1ccc(Cl)cc1)N1CCN(S(=O)(=O)c2ccccc2)CC1 do in these assays?
Mtb hypoxia rep: 7.7; PrP 5UTR inh: -13.0; Sa RN4220 lethal: 10.4; Sa ugtP lethal: 9.1; Autofluor counter: 3906; Mtb hypoxia rep growth: 7.2

What do the screens show for `CC1(C)CC(=O)C(Sc2ccccc2[N+](=O)[O-])=C(O)C1`?
Mtb hypoxia rep: 2.7; PrP 5UTR inh: -27.5; Sa RN4220 lethal: 3.2; BJeLR lethal: -1.4; Sa ugtP lethal: 1.4; Autofluor counter: 2284; Mtb hypoxia rep growth: 8.3

How did CCCC1=NN(C(=O)C(=O)Nc2ccc(Br)cc2)C(O)(C(F)(F)F)C1 (stereo unspecified) do in these assays?
Mtb hypoxia rep: -7.5; PrP 5UTR inh: -14.9; Sa RN4220 lethal: 11.6; BJeLR lethal: -3.2; Sa ugtP lethal: 3.7; Autofluor counter: 4525; Mtb hypoxia rep growth: 7.7

How did Cc1ccc(F)c(CNC(=O)C2CCC(=O)N(CCN3CCOCC3)C2)c1F (stereo unspecified) do in these assays?
Mtb hypoxia rep: 8.3; PrP 5UTR inh: -10.1; Sa RN4220 lethal: 3.2; BJeLR lethal: -5.7; Sa ugtP lethal: 3.6; Autofluor counter: 4110; Mtb hypoxia rep growth: -0.8

What do the screens show for `COC(=O)CCC(=O)Nc1cccc(Br)c1`?
PrP 5UTR inh: -7.8; Sa RN4220 lethal: 2.1; BJeLR lethal: -6.8; Sa ugtP lethal: 2.2; Autofluor counter: 3009

How did S=c1[nH]nc(COc2ccccc2)n1N=Cc1ccccc1Br do in these assays?
Mtb hypoxia rep: 12.0; Sa RN4220 lethal: 16.1; Sa ugtP lethal: -1.8; Mtb hypoxia rep growth: 9.9

4 entries picked at random from those above, as already listed:
How did CCCC1=NN(C(=O)C(=O)Nc2ccc(Br)cc2)C(O)(C(F)(F)F)C1 (stereo unspecified) do in these assays?
Mtb hypoxia rep: -7.5; PrP 5UTR inh: -14.9; Sa RN4220 lethal: 11.6; BJeLR lethal: -3.2; Sa ugtP lethal: 3.7; Autofluor counter: 4525; Mtb hypoxia rep growth: 7.7

How did CCn1cc(C(=O)OCC(=O)N2C(C)CCCC2C)c(=O)c2ccc(C)nc21 (stereo unspecified) do in these assays?
Mtb hypoxia rep: 9.1; PrP 5UTR inh: 2.4; Sa RN4220 lethal: 8.0; BJeLR lethal: 3.6; Sa ugtP lethal: 0.3; Autofluor counter: 4500; Mtb hypoxia rep growth: 3.9

What do the screens show for `COc1ccc(NC(=O)CN(C)C(=O)c2ccc(C)c(S(=O)(=O)N3CCCCC3)c2)cc1`?
Mtb hypoxia rep: 20.2; PrP 5UTR inh: -6.2; Sa RN4220 lethal: 1.1; Sa ugtP lethal: 2.1; Autofluor counter: 4041; Mtb hypoxia rep growth: 31.1

Results for CSc1ccc(CN(C)CC(=O)Nc2cccc(Br)c2)cc1 ?
Mtb hypoxia rep: 0.9; PrP 5UTR inh: -9.6; Sa RN4220 lethal: 0.3; BJeLR lethal: 1.8; Sa ugtP lethal: -6.7; Autofluor counter: 2539; Mtb hypoxia rep growth: 3.0

The list goes on:
What do the screens show for `O=C(COc1ccc2c3c(c(=O)oc2c1)CCC3)Nc1ccc(CCO)cc1`?
Mtb hypoxia rep: 6.5; PrP 5UTR inh: -26.5; Sa RN4220 lethal: 1.5; BJeLR lethal: 1.5; Sa ugtP lethal: 0.8; Autofluor counter: 5838; Mtb hypoxia rep growth: -2.2

How did CCOC(=O)/C(C#N)=C1/C=CN(c2ccc(C)cc2)C=N1 do in these assays?
Mtb hypoxia rep: 16.2; PrP 5UTR inh: -41.7; Sa RN4220 lethal: 10.2; BJeLR lethal: 1.1; Sa ugtP lethal: 5.6; Autofluor counter: 10720; Mtb hypoxia rep growth: 6.5

How did Cc1cc(Cn2nc(C(=O)NCC3CC3)cc2-c2ccccc2)on1 do in these assays?
Mtb hypoxia rep: 5.3; PrP 5UTR inh: -13.2; Sa RN4220 lethal: 1.7; BJeLR lethal: 13.2; Sa ugtP lethal: -0.1; Autofluor counter: 3954; Mtb hypoxia rep growth: 5.8

How did CCNC(=O)COC(=O)CCNC(=O)c1cccc(C)c1 do in these assays?
Mtb hypoxia rep: 17.9; PrP 5UTR inh: -21.1; Sa RN4220 lethal: 2.6; BJeLR lethal: -20.7; Sa ugtP lethal: 2.3; Autofluor counter: 3623; Mtb hypoxia rep growth: -2.0

How did O=C(NN=Cc1ccoc1)c1ccccc1O do in these assays?
Mtb hypoxia rep: -5.7; Sa RN4220 lethal: 3.9; Sa ugtP lethal: -1.4; Mtb hypoxia rep growth: 1.0

What do the screens show for `Cn1c(=O)[nH]c(=O)c2c1nc(Br)n2CCCc1ccccc1`?
Mtb hypoxia rep: 3.7; Sa RN4220 lethal: 7.1; BJeLR lethal: 0.9; Sa ugtP lethal: 2.7; Mtb hypoxia rep growth: 7.6

What do the screens show for `CCCN(CC1CC1)S(=O)(=O)c1ccc(-n2cnnn2)c(OC)c1`?
Mtb hypoxia rep: 2.8; Sa RN4220 lethal: 0.4; BJeLR lethal: -16.4; Sa ugtP lethal: 2.2; Autofluor counter: 12645; Mtb hypoxia rep growth: -3.6

Results for CCCC(=O)Nc1nc2ccc(NC(=O)c3c(F)c(F)c(OC)c(F)c3F)cc2s1 ?
Mtb hypoxia rep: 4.9; PrP 5UTR inh: 9.1; Sa RN4220 lethal: 3.5; BJeLR lethal: 42.3; Sa ugtP lethal: 17.2; Autofluor counter: 5896; Mtb hypoxia rep growth: 21.4

How did C[C@H]1CN(S(=O)C(C)(C)C)[C@H](CCO)/C1=C\CCO (stereo partly specified) do in these assays?
Mtb hypoxia rep: -4.0; PrP 5UTR inh: -21.8; Sa RN4220 lethal: -1.6; Sa ugtP lethal: 1.9; Autofluor counter: 3611; Mtb hypoxia rep growth: 1.1

How did N#Cc1c(/N=C/N2CCCC2)oc(-c2ccccc2)c1-c1ccccc1 do in these assays?
PrP 5UTR inh: -10.5; BJeLR lethal: -0.2; Autofluor counter: 3082

What do the screens show for `CCOC(=O)C(Cc1ccccc1)c1ccnc2ncnn12` (stereo unspecified)?
Mtb hypoxia rep: 5.2; PrP 5UTR inh: 0.5; Sa RN4220 lethal: 1.6; BJeLR lethal: -18.0; Sa ugtP lethal: 8.6; Autofluor counter: 4381; Mtb hypoxia rep growth: -7.9

Results for COc1ccc(-c2cc(C(=O)Nc3ccc(C)c(N)c3)c3ccccc3n2)cc1 ?
Mtb hypoxia rep: 2.2; PrP 5UTR inh: -16.7; Sa RN4220 lethal: -2.7; BJeLR lethal: -3.3; Sa ugtP lethal: 7.8; Autofluor counter: 3069; Mtb hypoxia rep growth: -5.8

What do the screens show for `N#CC(c1ccccc1O)N1N=C(c2ccccc2)CC1c1ccccc1` (stereo unspecified)?
Mtb hypoxia rep: 12.5; Sa RN4220 lethal: 0.3; BJeLR lethal: 3.1; Sa ugtP lethal: 17.2; Autofluor counter: 3655; Mtb hypoxia rep growth: -4.5

How did COc1cc(C(=O)NC2CCN(Cc3nnnn3Cc3cccs3)CC2)cc(OC)c1OC do in these assays?
Mtb hypoxia rep: 5.8; PrP 5UTR inh: -34.1; Sa RN4220 lethal: 7.8; BJeLR lethal: -7.1; Sa ugtP lethal: -5.7; Autofluor counter: 22671*; Mtb hypoxia rep growth: 6.2

Results for N#Cc1sc2nc3c(c(-c4cccnc4)c2c1N)CCC3 ?
Mtb hypoxia rep: -12.3; PrP 5UTR inh: -1.9; Sa RN4220 lethal: 0.2; BJeLR lethal: 7.1; Sa ugtP lethal: -4.6; Autofluor counter: 5107; Mtb hypoxia rep growth: -16.7

What do the screens show for `CC(=NNC(=O)c1ccc(OC2OCCOC2Oc2ccc(C(=O)NN=C(C)c3ccncc3)cc2)cc1)c1ccncc1` (stereo unspecified)?
Mtb hypoxia rep: -10.7; Sa RN4220 lethal: 5.2; Sa ugtP lethal: 13.3; Mtb hypoxia rep growth: 7.3

Results for Cc1cc(C)n(-c2nc(SCC(=O)O)c3c4c(sc3n2)COC(C)(C)C4)n1 ?
Mtb hypoxia rep: -2.2; PrP 5UTR inh: -21.2; Sa RN4220 lethal: 12.5; BJeLR lethal: 9.5; Sa ugtP lethal: -3.5; Autofluor counter: 4304; Mtb hypoxia rep growth: 0.2

How did Cc1onc(-c2c(F)cccc2Cl)c1C(=O)NC1CCSC1=O (stereo unspecified) do in these assays?
Mtb hypoxia rep: 13.9; PrP 5UTR inh: 4.0; Sa RN4220 lethal: -0.7; BJeLR lethal: 5.0; Sa ugtP lethal: -8.4; Mtb hypoxia rep growth: 2.1

Screens from PubChem BioAssay.
